Source: PubChem BioAssay
TRPV1 PAM: enhances activation of the human vanilloid receptor TRPV1; Q8NER1; potentiation, % at 8.33 µM; AID 540277; 0.02% of 320,000 active; TRPV1-expressing cells, Fluo-8 calcium influx, capsaicin EC20 potentiation; host cell line not named in the record; control for the full effect not named in the record; active means potentiation above 80%; inconclusive means 30% to 80%; inactive means below 30%; note: 0% is about no effect
Target sequence (Q8NER1 whole entry, looked up): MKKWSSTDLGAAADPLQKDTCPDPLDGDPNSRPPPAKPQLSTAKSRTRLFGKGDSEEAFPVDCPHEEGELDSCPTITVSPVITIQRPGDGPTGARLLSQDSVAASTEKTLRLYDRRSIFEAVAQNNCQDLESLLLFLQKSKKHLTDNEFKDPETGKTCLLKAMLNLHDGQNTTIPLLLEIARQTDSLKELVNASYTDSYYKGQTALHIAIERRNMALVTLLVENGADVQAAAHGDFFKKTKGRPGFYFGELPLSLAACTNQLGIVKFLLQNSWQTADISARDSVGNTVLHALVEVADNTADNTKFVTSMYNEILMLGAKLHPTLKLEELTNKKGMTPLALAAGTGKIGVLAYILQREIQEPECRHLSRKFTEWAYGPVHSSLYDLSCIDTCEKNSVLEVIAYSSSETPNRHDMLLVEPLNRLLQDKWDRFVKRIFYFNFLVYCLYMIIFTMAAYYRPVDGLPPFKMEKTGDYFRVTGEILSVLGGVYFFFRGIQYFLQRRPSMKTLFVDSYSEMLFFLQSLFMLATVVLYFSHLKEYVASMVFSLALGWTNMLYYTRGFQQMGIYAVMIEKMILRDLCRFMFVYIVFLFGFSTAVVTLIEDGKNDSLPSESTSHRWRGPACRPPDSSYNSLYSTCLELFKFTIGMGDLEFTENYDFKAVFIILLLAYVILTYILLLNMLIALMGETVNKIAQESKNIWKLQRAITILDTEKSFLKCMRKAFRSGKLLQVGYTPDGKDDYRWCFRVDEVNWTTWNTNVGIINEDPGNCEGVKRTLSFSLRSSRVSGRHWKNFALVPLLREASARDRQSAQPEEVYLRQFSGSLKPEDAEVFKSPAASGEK
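Fluo-8 calcium influx in TRPV1-expressing cells, kinetic read (ex 480/em 520 nm). Compound added and read 3 min for agonist activity, followed by capsaicin at EC20 final and 2 min further read for enhancement.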
TRPML1 agonist: human mucolipin-1 channel agonism | TRPML1-expressing cells, Ca2+ dye fluorescence, FDSS; host cell line not named in the record; reference of the full effect not given here | activation, % (concentration not given with the values) | 0.12% of 410,000 active | AID 624414; in the data active = activation above about 50%; inconclusive = about 30% to 50%; inactive = below about 30%; note: 0% is about no effect; the text of the record puts the active cut at 80%
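Tetracycline-induced TRPML1-DL cells are seeded and incubated overnight before loading with a no-wash Ca2+ dye and quencher. Agonist activity is taken from the 110 s fluorescence read following compound pin-transfer on an FDSS, before EC80 54-4 challenge.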
TRPML1 inh: inhibitors of human TRPML1 channel. Q9GZU1. TRPML1-inducible cells, Ca2+ dye fluorescence, FDSS; hits give low values; inhibition of EC80 agonist-evoked calcium signal. activity change, negative = inhibition, % (test concentration not listed). 0.02% of 390,000 active. AID 624415; in the data active means activity change below about -50%; inconclusive means about -30% to -50%; inactive means above about -30%;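 note: stimulus is agonist 54-4 at its EC80 concentration; % is set by controls: 0 for no effect and ±100 for the full control effect; compound concentration not given in the record; the text of the record puts the active cut at -80%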
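Calcium fluorescence in TRPML1-DL cells induced overnight with Tet: a 110 s read after compound pin addition, then a 110 s antagonist read after challenge with 54-4 at 4 uM final (EC80).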
CtBP-E1A blk: blocks the CtBP interaction with E1A | AlphaScreen GST-E1A/His-CtBP binding, 1536-well; hits give low values; control for the full effect not named in the record | activity change, % (concentration not given with the values) | 0.49% of 340,000 active | AID 651724; in the data active means activity change below about -65%; inconclusive means about -30% to -65%; inactive means above about -30%; note: % is set by controls: 0 for no effect and ±100 for the full control effect
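Homogeneous bead-based format: GST-tagged E1A captured on glutathione donor beads, His-tagged CtBP on nickel acceptor beads; compounds precede bead addition by 2 h at 37 °C.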
D2 potentiator: positive allosteric modulators of human D2 dopamine receptor; P14416; DiscoveRx D2 beta-arrestin cells, luminescence, 90 min; 100% = 57 uM dopamine signal; potentiation, % (test concentration not listed); 0.23% of 360,000 active; active = potentiation of 50% or more; inconclusive = 30% to 50%; inactive = 30% or less;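 note: compound concentration not given in the record; tested on top of an EC20 dose of dopamine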
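D2 cells co-treated with compound plus 50 nM dopamine (EC20) for 90 min at 37 deg C to detect potentiation. Beta-arrestin recruitment was read as enzyme-fragment luminescence after 1 h at ambient temperature. Full response was set by 57 uM dopamine.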
Six1-Eya2 inh: inhibitors of human Six1/Eya2 interaction. AlphaScreen GST-Six1/His-Eya2 binding, biochemical; hits give low values; control for the full effect not named in the record. 0.56% of 360,000 active. Q15475+O00167. activity change, % (test concentration not listed); in the data active = activity change below about -65%; inconclusive = about -30% to -65%; inactive = above about -30%; note: % is set by controls: 0 for no effect and ±100 for the full control effect; compound concentration not given in the record
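Homogeneous AlphaScreen proximity assay pairing GST-Six1 with His-tagged Eya2 (added as 5X mix: 250 nM and 500 nM) in 50 mM Tris pH 8.0, 300 mM NaCl, 1 mM TCEP. Glutathione donor and nickel acceptor beads; 1 h, 37 °C, dark.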
* = called active by the depositor; ? = inconclusive; . = no result given; & = joins results of further samples.

SMILES	TRPV1 PAM	TRPML1 agonist	TRPML1 inh	CtBP-E1A blk	D2 potentiator	Six1-Eya2 inh
C[C@H](O)[C@@H]1C(=O)N2CCc3c([nH]c4ccccc34)[C@@H]2C[C@@H]1N(C)S(=O)(=O)c1ccccc1	.	0.2	12	-28	-3	-11
Cc1ccc(CNC2=NCCCCC2)n1C	6	0.2	0	2	-15	-2
CCOc1ccc(N2C(=O)CC(N(CCc3ccc(OC)c(OC)c3)C(=S)Nc3ccccc3)C2=O)cc1 (stereo not drawn)	5	1.4	4	-5	-3	5
Cn1cc(C(=O)CCl)c2ccccc21	12	7.9	10	.	-13	0
COCCn1c(SCc2cc(C(C)=O)ccc2OC)nc2cc(Cl)ccc2c1=O	-4	-0.2	9	3	-1	4
O=C(Nc1ccc(N2CCOCC2)cc1)C1CC(=O)N(c2ccc(Cl)cc2)C1 (stereo not drawn)	-4	-0.6	14	1	-14	2
CCOCCOc1nc2c(c(=O)n(C)c(=O)n2C)n1CCc1ccccc1	-2	-1.0	-11	3	0	-1
O=C(CCN1CCOCC1)NNC(=O)Nc1cccc(C(F)(F)F)c1	14	-0.2	14	2	-1	-1
C=C(C)CN1CCN(c2ccc(N3C(=O)CCCC3=O)cc2[N+](=O)[O-])CC1	11	-0.3	-5	.	-24	14
CCC(C)N(CC(=O)Nc1cccc(C)c1C)C(=O)CCl (stereo not drawn)	-2	-0.4	-4	0	0	1
CC(C(=O)NCc1cccs1)N1CCN(S(=O)(=O)c2ccc3c(c2)OCCCO3)CC1 (stereo not drawn)	7	0.0	1	4	-18	5
COC(=O)c1c(C(=O)OC)c(-c2ccc(C)cc2)n2c1CS(=O)C2 (stereo not drawn)	-3	-0.7	-4	6	7	-3
O=C(O)C1C2CCC(C2)C1C(=O)NCc1ccccn1 (stereo not drawn)	.	-0.6	6	-16	-23	-25
C=CCNC(=O)c1ccc(-c2nc(-c3ccccc3)cs2)cc1	20	0.9	16	7	-10	-1
O=C(NCc1ccc2c(c1)OCO2)C1CCC(=O)N1C1CCCC1 (stereo not drawn)	?	-0.8	-1	-1	-21	-7
COC(=O)c1cc(OC)c(OC)cc1NC(=S)N1CCCC1	-10	-0.3	-12	-7	-4	12
CC1(C)Nc2ccccc2C(=O)N1c1ccccc1	5	0.1	-9	-3	-2	2
CC1CCCCN1S(=O)(=O)c1ccc(S(=O)(=O)N2CCN(C)CC2)cc1 (stereo not drawn)	2	0.2	23	-7	-2	-6
COc1ccccc1CNC(=O)c1cccc(S(=O)(=O)N2CCN(c3ccc(F)cc3)CC2)c1	25	-0.6	2	.	0	-9
O=C(Nc1c2c(nc3ccccc13)CCCC2)c1ccccc1Cl	-28	-0.5	-1	4	1	-2
CN(CCO)CCC(=O)NC1(C)CS(=O)(=O)CC1S(=O)(=O)O (stereo not drawn)	4	0.8	0	1	-4	3
COc1ccccc1NC(=O)CSc1nnc(COc2ccccc2OC)n1C	5	-0.8	-6	7	2	6
NCCCNC(=O)c1ccc(/C=N/O)nc1	0	0.1	-19	-4	-8	-24
CC(C)CN1CCC(=O)N([C@H](COc2ccccc2)Cc2ccccc2)CC1	-4	1.5&5.2	2	-12	-88	3
COc1cc(/C=N/OCC(=O)Nc2cc(C)on2)ccc1OCc1ccccc1	-1	1.7	-19	-3	3	2
O=C(c1ccc(-c2ccc(Cl)cc2)o1)N1CCN(S(=O)(=O)c2cccs2)CC1	16	-0.1	74	.	-1	-6
Cc1ccc2c(c1)C=CC(C)(C)S2=O (stereo not drawn)	7	0.5	3	7	-28	16
CCOC(=O)NC(NCc1ccccc1Cl)(C(F)(F)F)C(F)(F)F	-5	2.5	2	-6	-11	11
CC/S(C)=N/S(=O)(=O)c1ccc(C)cc1 (stereo not drawn)	20	-0.1	14	2	-3	0
CCC(Sc1nc(C)cc(=O)[nH]1)C(=O)Nc1nc2c(s1)CCCC2 (stereo not drawn)	-21	-0.6	0	-6	-4	-2
CCCCN1CC(O)=C(c2nc(-c3ccc(Cl)cc3)cs2)C1=N	11	-1.0	-2	2	-13	-2
Cn1c(CN2CCCC2)nc2cc(NC(=O)C3CCCCC3)ccc21	4	-0.2	-2	-2	-8	3
Cc1ccccc1-n1ncc2c1CC(C)(C)CC2NC(=O)C1=CC(=O)CC(C)(C)O1 (stereo not drawn)	-22	0.2	-4	-1	-6	-2
COc1ccc(CS(=O)(=O)c2ncn[nH]2)cc1	4	0.6	52	4	3	4
Cc1cccc(/C=N/n2c(C)nnc2C)c1	-22	0.0	8	7	3	-1
CC(C)(C)c1ccc(NC(=O)c2cc(C3CCCN(C(=O)CCc4ccccc4)C3)on2)cc1 (stereo not drawn)	.	-0.4	.	3	-3	3

Single entries from above.
TRPML1 inh with `CC/S(C)=N/S(=O)(=O)c1ccc(C)cc1` (stereo not drawn) : 14
TRPV1 PAM with `Cn1c(CN2CCCC2)nc2cc(NC(=O)C3CCCCC3)ccc21` : 4
TRPV1 PAM with `Cc1ccc2c(c1)C=CC(C)(C)S2=O` (stereo not drawn) : 7
D2 potentiator with `COc1ccc(CS(=O)(=O)c2ncn[nH]2)cc1` : 3

(next part)
SMILES	TRPV1 PAM	TRPML1 agonist	TRPML1 inh	CtBP-E1A blk	D2 potentiator	Six1-Eya2 inh
NCCCC[C@H]1CNC(=O)C(=O)N1CCc1cc(C(F)(F)F)cc(C(F)(F)F)c1	14	0.4	15	0	-6	6
CCOC(=O)C1CCCN(Cc2nc(C3CC3)no2)C1 (stereo not drawn)	?	0.4	1	-20	-2	12
Cc1cccc(NC(=O)c2cc3ccccc3oc2=O)c1	4	0.4	11	.	-27	1
COc1ccccc1N1CCN(C(=S)Nc2ccccc2)CC1	-45	0.2&-0.6	-9	-1&2	-12&-12	-15&0
O=C(CSc1cccc[n+]1[O-])Nc1ccc2c(c1)OCCO2	4	-0.3	14	10	0	-5
Cc1ccc(CN(CC(O)COc2cccc3[nH]cc(C)c23)C(C)(C)C)cc1 (stereo not drawn)	24	-0.1	-2	.	-9	?
COc1ccc(NC(=O)CCS(=O)(=O)c2ccc3c(c2)NC(=O)C(C)S3)cc1OC (stereo not drawn)	3	0.5	0	0	1	1
CC(=O)c1cccc(OCC(O)CNCCOc2ccc(C)cc2)c1 (stereo not drawn)	?	-0.8	-14	-12	-7	0
CCOC(=O)C1CCCN(C(=O)c2cc(-c3ccc(F)cc3)nc3ccccc23)C1 (stereo not drawn)	-5	2.7	8	-8	-2	-13
Cc1cccc(Oc2ncnc(N)c2[N+](=O)[O-])c1C	0	-0.2	-18	1	-6	7
N#C[C@H]1C2OC2c2ccccc2N1C(=O)c1ccccc1 (stereo partly drawn)	.	.	.	4	-12	4
CCc1ccc(C(=O)CSc2ncn[nH]2)cc1	-9	0.2	22	1	-6	6
CC(=O)c1c(C)[nH]c(C(=O)N2c3ccccc3CC2C)c1C (stereo not drawn)	.	-0.8	16	0	0	-5
Cc1cc(C(=O)COC(=O)c2ccc3c(c2)OCO3)c(C)n1CC1CCCO1 (stereo not drawn)	-20	-0.3	9	0	-4	2
COC(=O)C1=C(C)N(Cc2ccccc2)C(=NCC2CC2)N[C@H]1c1ccccc1	5&2	-0.5	-7	.	-11	-5
Cc1ccc2c(c1)C(=C(C#N)C#N)CCN2	.	0.9	24	0	-14	-29
C=CCN1C(=O)c2ccc(C(=O)OCC(=O)N(CC)C3CCS(=O)(=O)C3)cc2C1=O (stereo not drawn)	-6	-0.2	-14	4	-2	8
c1ccc(Cn2nnnc2CN2CCN(c3ncccn3)CC2)cc1	21	-0.1	-8	1	23	2
O=C(COc1ccc(Br)cc1)Nc1ccc(C(=O)Nc2ccccc2C(=O)O)cc1	-1	2.7	50	-4	-4	-30
COc1ccc(C(=O)Nc2ccccc2C(N)=O)cc1	-6	1.5	13	2	-7	-3
COc1ccc(CNC(=O)CCc2nnc3ccc(N4CCC5(CC4)OCCO5)nn23)cc1	14	-0.7	-8	-12	-9	-7
Cc1ccccc1OCC(=O)Nc1nnc(C2CC2)s1	-4	1.3	-2	.	-2	-1
O=C(Nc1ccccc1)c1n[nH]c(Cn2cncn2)n1	.	-1.0	12	1	2	-2
COc1ccc(NC(=O)CN(C)C(=O)c2ccc(NS(=O)(=O)c3ccc4[nH]c(=O)[nH]c4c3)cc2)cc1	-3	1.4	-29	1	-4	-1

Some of the entries so far, as a markdown table.
| structure | TRPV1 PAM | TRPML1 agonist | TRPML1 inh | CtBP-E1A blk | D2 potentiator | Six1-Eya2 inh |
| --- | --- | --- | --- | --- | --- | --- |
| Cc1cccc(/C=N/n2c(C)nnc2C)c1 | -22 | 0.0 | 8 | 7 | 3 | -1 |
| CC(C)(C)c1ccc(NC(=O)c2cc(C3CCCN(C(=O)CCc4ccccc4)C3)on2)cc1 (stereo not drawn) | . | -0.4 | . | 3 | -3 | 3 |
| NCCCC[C@H]1CNC(=O)C(=O)N1CCc1cc(C(F)(F)F)cc(C(F)(F)F)c1 | 14 | 0.4 | 15 | 0 | -6 | 6 |
| CCOC(=O)C1CCCN(Cc2nc(C3CC3)no2)C1 (stereo not drawn) | ? | 0.4 | 1 | -20 | -2 | 12 |

Next section:
SMILES	TRPV1 PAM	TRPML1 agonist	TRPML1 inh	CtBP-E1A blk	D2 potentiator	Six1-Eya2 inh
O=C(NCc1ccc2c(c1)OCO2)c1cccnc1Cl	-6	1.2	-18	7	-6	1
O=c1[nH]nc(SCc2ccccc2Cl)n1-c1ccc2c(c1)OCCO2	15	0.5	39	6	2	-1
Cc1ccc(NC(=O)c2cc(-c3cccs3)on2)cc1C	8	2.0&2.2	-8&-19	.	-20	-3
S=C(NCCc1ccccc1)N1CCN(Cc2ccccc2)CC1	-6	0.1	-19	-14	-6	?
O=C(O)c1ccc2nc(-c3ccco3)c(-c3ccco3)nc2c1	5	1.0	58	-25	12	?
Cc1ccccc1NC(=S)N(Cc1cccs1)C1CCCC1	1	0.6	6	-13	-12	-4
O=C(NCC(=O)N(Cc1cccs1)C(C(=O)NC1CCCC1)c1cccnc1)c1ccco1 (stereo not drawn)	-1	-1.0	12	0	-2	2
CCC(=O)Nc1nnc(CSCc2ccc(F)cc2)s1	3	-0.7	-6	8	-5	5
O=C(O)c1ccc(N2Cc3ccccc3C2)cc1O	7	0.5	7	12	17	-11
CN(CCO)c1cc(Sc2nc3ccccc3s2)c2nonc2c1[N+](=O)[O-]	-6	1.3	30	-5	-25	-11
CN(C)c1ccc(C=C2SC(=S)N(Cc3ccco3)C2=O)cc1	.	30	-7	2	3	-3
COc1cc(C(=O)NCc2cn3ccsc3n2)cc(OC)c1OC	.	-0.1	-2	0	-21	-3
C/C(=N\Nc1cc(C(F)(F)F)ccc1Cl)c1ccccc1O	-4	0.3	31	16	20	14
CSc1nsc2nc(=O)c(/C=C3\C(C)=Nc4ccccc43)c(N)n12	3	-0.8	-5	-19	-4	?
CCc1cc(=O)oc2cc(C)cc(OCC(=O)NCCCN3CCOCC3)c12	7	-0.5	5	-4	-4	2
Cc1ccnc(SCC(=O)N2CCC(C(N)=O)CC2)n1	1	0.9	-6	12	-7	3
CC(=O)C1=C(C)NC(C)=C(C(C)=O)C1c1ccccc1	3	0.0	5	-1	8	0
O=C(COC(=O)c1ccccc1C(=O)c1ccccc1)Nc1ccc(SC(F)F)cc1	22	3.8	17	11	-17	2
CCCNS(=O)(=O)c1ccc(CCC(=O)Nc2cc(Cl)ccc2Oc2ccccc2)cc1	-6	2.6	3	2	9	-2
CCc1nc2ccc(C(=O)N(CC)CCN(C)C)cn2c1N(C)CCCc1ccccc1	.	-0.7	-11	-8	-20	-8
